Screens as filed in PubChem BioAssay.
RanGTP-Imp inh – inhibitors of RanGTP-importin-beta interaction, primary screen, biochemical, FRET, CFP-Ran, YFP-importin-beta, homogeneous; Ran GTPase (GTP-bound) - importin-beta complex; cell-free CFP-Ran/YFP-importin-beta FRET ratio; inhibition, % (test concentration not listed); hit rate 1.1% among 300,000; AID 2216, 2009;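 active means most replicates above 15%; inconclusive means exactly half above 15%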;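 further: 0% = DMSO wells and 100% = Ran loaded with GDP instead of GTP; wells of about 40 µL received 100 nL stock; the first replicate is given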
Beta cell apopt – inhibitors of cytokine-induced beta cell apoptosis, primary screen, luminescence; INS-1E cytokine-induced death, ATP luminescence, 48 h; percent of positive-control rescue, neutral wells zero; protection from apoptosis, % (test concentration not listed); hit rate 0.8% among 300,000;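 active means all replicates at 75% or more, or half of them and the mean; inconclusive means half reach 75% but not the mean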;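 further: 0% = cytokine-treated negative control wells and 100% = positive control rescue; higher means more ATP so stronger rescue from cytokine killing; wells of about 40 µL received 100 nL stock; the first replicate is given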
T cruzi repl – inhibitors of intracellular T. cruzi growth, primary screen, luminescence, NIH3T3 host cells; T. cruzi beta-gal in NIH3T3, 90 h; inhibition, % (no concentration beside the values); hit rate 1.4% among 300,000; AID 1885, 2009;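 active means mean inhibition across valid replicates above about 55%, limit read from the data; inconclusive means mean below that limit but half or more replicates reach it; inactive means mean below it, under half of replicates reach it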;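 further: signal also drops with host cell toxicity which is not excluded here; 0% = plate median of DMSO wells and 100% = zero luminescence signal; higher percent means less beta-gal luminescence so fewer parasites; stock transfer was 50 nL into about 50 µL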
Bfl-1 A1 inh – caspase 3/7 activation in MEF A1-2A-BIM cells, primary screen, A1 inhibitor project, cell-based, luminescence, HTS; hit rate 0.066% among 330,000; Caspase-Glo 3/7 luminescence, 3 h; percent of clofoctol response, vehicle zero; caspase activation, % (concentration not given with the values);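 active means over half of replicate activation scores above 10%, or exactly half above 10 with the replicate mean above 10; inconclusive means replicate mean below 10 yet half the replicates above 10; inactive means over half of replicates below 10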;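 further: wells of about 30 µL received 50 nL stock; many hits fall short of the cut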
Ecoli rRNA inh – reduced GFP signal of wild-type E. coli, primary screen, bacterial rRNA inhibitor project, GFP/RFP fluorescence, OD600, single point. E. coli WT GFP vs humanized-ribosome RFP mutants, 24 h; stronger effect = lower value; DMSO median 0, no signal -100. GFP signal change (wild-type ribosome), % (test concentration not listed). hit rate 1.6% among 350,000. AID 720706, 2013;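 active means significant combined selectivity score with lowered wild-type GFP, culture density cut under 30%, mutant RFP and density less affected; inactive means any of these conditions unmet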; further: one replicate is shown; some compounds called inactive have numbers as strong as hits
Calb FLC – C. albicans growth inhibition with fluconazole, primary screen, CaCi-2 strain, Alamar Blue fluorescence | C. albicans CaCi-2 (fluconazole-resistant clinical isolate) + fluconazole, 48 h | growth inhibition, % (concentration not given with the values) | hit rate 0.57% among 300,000 | AID 1979, 2009;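 active means most replicates above 75%; inconclusive means exactly half above 75%; inactive means most below 75%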;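 further: all wells also contain fluconazole at 8 µg/ml as a sub-toxic cotreatment; 0% = median of DMSO wells and 100% = median of geldanamycin control wells; wells of about 8 µL received 7.5 nL stock; the first replicate is given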
MLL AF4-AF9 inh – inhibitors of AF4 peptide binding to AF9, primary screen, biochemical, AlphaScreen, biotin-AF4 peptide, FLAG-AF9, single point | hit rate 0.47% among 350,000 | Protein AF-9 (Homo sapiens), P42568 | inhibition, % at 10 µM | AID 651704, 2012;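 active means every replicate reaching a set inhibition limit, whatever the replicate mean, cut at about 25% in these data; inconclusive means mean inhibition reaches that limit but some replicates miss it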;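 further: 0% = plate neutral control median and 100% = total signal loss; the record names both 10 and 1 µM as test concentration; the first replicate is given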
Target sequence (P42568 whole entry, looked up): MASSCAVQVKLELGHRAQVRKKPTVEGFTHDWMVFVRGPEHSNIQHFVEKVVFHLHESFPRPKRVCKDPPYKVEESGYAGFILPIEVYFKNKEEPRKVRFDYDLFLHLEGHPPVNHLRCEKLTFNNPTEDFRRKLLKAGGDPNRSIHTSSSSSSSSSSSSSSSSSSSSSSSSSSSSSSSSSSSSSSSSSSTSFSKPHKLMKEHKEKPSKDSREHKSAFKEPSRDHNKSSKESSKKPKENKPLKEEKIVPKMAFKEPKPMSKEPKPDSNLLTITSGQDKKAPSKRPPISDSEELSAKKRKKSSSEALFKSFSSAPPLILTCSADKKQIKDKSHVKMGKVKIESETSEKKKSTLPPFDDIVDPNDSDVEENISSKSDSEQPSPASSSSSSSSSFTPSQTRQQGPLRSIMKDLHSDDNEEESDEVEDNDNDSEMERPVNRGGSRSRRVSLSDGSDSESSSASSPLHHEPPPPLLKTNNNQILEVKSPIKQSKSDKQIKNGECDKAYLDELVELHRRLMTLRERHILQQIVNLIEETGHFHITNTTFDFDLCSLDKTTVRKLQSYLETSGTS
Vif TR-FRET – inhibitors of Vif binding to APOBEC3G peptide, primary screen, biochemical, TR-FRET, GST-Vif 1-94, biotin-A3G peptide, dose response retest (AID 1117319) | Virion infectivity factor (Human immunodeficiency virus type 1 group M subtype B (isolate … | TR-FRET GST-Vif / biotin-A3G peptide binding; higher % means a stronger effect; test concentration not given here; strong numbers were not always called active | inhibition, %, or IC50 in µM where a hit was titrated | hit rate 0.57% among 260,000;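 active means above the screen mean plus three standard deviations and confirmed in dose response; inconclusive means results disagree or hit not tested in dose response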;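 further: Vif residues 1-94 fused to GST binding biotinylated APOBEC3G peptide 110-148; 0% = full assay without inhibitor and 100% = GST in place of GST-Vif; retest series ran down from 100 µM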
Ecoli rRNA inh OD600 – further read-out of Ecoli rRNA inh, marked with its call; OD600 change, %; measured here: OD600 growth;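 optical density of the mix in the first replicate; 0 = DMSO median and -100 = no signal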
Ecoli rRNA inh RFP – also measured in Ecoli rRNA inh; calls as there; RFP signal change, %; measured here: RFP humanized mutant strains;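 first replicate; 0 = DMSO median and -100 = no signal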
Active calls of the source: *; u = inconclusive; x = not tested or not shown; & = joins results of further samples.

SMILES	RanGTP-Imp inh	Beta cell apopt	T cruzi repl	Bfl-1 A1 inh	Ecoli rRNA inh	Ecoli rRNA inh OD600	Ecoli rRNA inh RFP	Calb FLC	MLL AF4-AF9 inh	Vif TR-FRET
CC(=O)c1cccc(OCC(=O)OCC(=O)Nc2cc(S(=O)(=O)N3CCCCC3)ccc2C)c1	x	-3	x	-0.9	8	8	2.6	x	6.2	-6%
COCCNC(=O)/C(C#N)=C/c1ccc(-c2ccc(S(=O)(=O)N3CCOCC3)cc2)o1	15*	-4	-3	-0.4	1	3	-1.0	18	2.6	x
CC(SCc1ccccc1)C(=O)N/N=C/c1ccc(OCC(=O)NCc2ccco2)cc1 (stereo unspecified)	0.1	-2	-11	-1.2	x	x	x	8	x	9%
CNc1ccccc1C(C)(C)c1cn(-c2ccc([N+](=O)[O-])cc2)nn1	3.9	12	5	0.5	-15	-10	-0.8	7	5.0	x
O=C(NCC1CCN(Cc2ccccc2Cl)CC1)Nc1cccc(Cl)c1	0.4	2	49	-0.2	3	-7	-2.8	-6	4.0	-4%
CCCC1=C(C(=O)OCC)C(c2ccc(OC)c(CSc3ccccn3)c2)C(C#N)=C(N)O1 (stereo unspecified)	-2.9	x	5	0.3	x	x	x	-10	x	x
N#C/C(=C\c1ccc(N2CCCCC2)c([N+](=O)[O-])c1)c1nn(-c2ccccc2)c(N)c1C#N	1.6	28	62*	0.1	x	x	x	-8	x	x
COc1ccc(-c2cnnn2-c2ccc(NC(=O)c3ccco3)cc2)cc1OC	-1.8	2	-17	-1.9	x	x	x	-1	x	-2%
NC(=O)CC(NC(=O)Cc1ccc(Br)cc1)c1ccc(N2CCN(c3ccc(F)cc3)CC2)c([N+](=O)[O-])c1 (stereo unspecified)	1.0	-24	-10	0.2	x	x	x	3	x	x
CCCc1cc(=O)oc2cc(OCC(=O)NCCCN3CCCC3=O)ccc12	2.3	-2	-8	0.9	-12	-8	1.6	6	0.2	8%
Cc1c(CN2CCCCC2)c(O)n(CCCO)c(=O)c1C#N	-0.8	-7	-7	0.2	x	x	x	2	x	u
COc1cc(CNC(C)(C)CO)ccc1OCC(=O)NC(C)(C)C	2.0	-5	-15	2.4	x	x	x	-17	x	29%
CCCc1cc(=O)n2[nH]c(C)c(-c3ccc(Cl)cc3)c2n1	-0.9	4	-6	0.2	-55	-75	-31	14	-1.3	10%
COc1cccc(OCc2cc(/C=N/NC(=O)c3nc(Cl)c(Cl)c(N)c3Cl)ccc2OC)c1	-6.7	1	13	0.1	x	x	x	-11	x	-3%&-2%
Cn1c(SCC(=O)N2CCN(S(=O)(=O)c3ccc(Cl)cc3)CC2)nc2ccccc21	-1.5	2	-1	-0.1	x	x	x	3	x	10%
CC(=O)Nc1ccc(NC(=O)c2cccc(-c3cc4ccccc4oc3=O)c2)cc1	-5.2	0	10	-1.3	-1	7	-2.1	28	1.3	-4%
Cc1ccc2cc(CN(CCCN3CCOCC3)C(c3nnnn3Cc3ccco3)C(C)C)c(=O)[nH]c2c1C (stereo unspecified)	4.9	-1	-32	0.5	x	x	x	-2	x	-7%
Cc1ccc(OCCCC(=O)N2CCN(S(=O)(=O)c3cccc(F)c3)CC2)cc1	1.0	-2	3	-0.3	8	12	-1.0	0	-4.6	-1%
O=C(OCC(=O)N(C1CCCCC1)C1CCCCC1)c1ccncc1	2.3	-3	-14	-0.7	x	x	x	-46	x	-1%
Cc1ccc(C(c2nnnn2Cc2ccccc2)N2CCN(Cc3ccccc3)CC2)cc1 (stereo unspecified)	-0.2	4	3	0.8	x	x	x	2	x	1%
COc1ccc(C2=CSC(/N=C/c3ccc(F)cc3)=NN2)cc1	0.8	x	3	-0.6	5	-6	4.2	-9	11	0%
O=C1[C@@H]2[C@@H]3C[C@@H]([C@H]4ON=C(c5ccc(OCc6ccccc6)cc5)[C@@H]34)[C@@H]2C(=O)N1c1ccc2c(c1)OCO2	-0.2	4	20	0.9	13	12	1.7	14	1.7	x
CC(C)NC(=O)c1cc(-c2ccc3c(c2)OCO3)on1	u	-7	-12	0.2	1	0	3.7	-4	-2.6	0%
Cc1ccccc1CN(c1ccc(C(=O)Nc2ccccc2C(=O)N2CCCC2)cc1)S(C)(=O)=O	5.0	6	-8	-0.1	x	x	x	-8	x	0%
CS(=O)(=O)N(CC(=O)NCc1ccc2c(c1)OCO2)c1ccc(Cl)cc1	u	-8	-1	0.5	x	x	x	-21	x	-2%

(further entries)
SMILES	RanGTP-Imp inh	Beta cell apopt	T cruzi repl	Bfl-1 A1 inh	Ecoli rRNA inh	Ecoli rRNA inh OD600	Ecoli rRNA inh RFP	Calb FLC	MLL AF4-AF9 inh	Vif TR-FRET
S=c1[nH]nc(COc2ccccc2)n1/N=C/c1cccc(Cl)c1Cl	3.8	-1	-4	-0.2	2	7	0.5	10	-0.9	3%
O=C(N/N=C/c1ccc(N2CCOCC2)cc1)c1ccncc1	x	-5	x	-1.1	5	15	3.5	x	-0.8	8%
CCOC(=O)Cc1csc(NC(=O)COc2ccccc2)n1	x	0	7	0.9	x	x	x	14	x	3%
Cc1cc(S(=O)(=O)NC2CCCCC2)c(C)s1	-1.3	-6	-4	0.3	-4	4	-2.3	-60	x	0%
O=C(CSc1ccccc1)Nc1ccccc1C(=O)O	-0.1	-4	-25	-5.0	x	x	x	-11	x	-1%
O=C(CCSc1nc(-c2ccco2)cc(C(F)(F)F)n1)NCc1ccccn1	0.6	-2	2	0.8	x	x	x	3	x	-1%
C=CCn1c(SCC(=O)c2ccc(Br)cc2)nnc1C(C)NC(=O)Cc1ccc(OC)cc1 (stereo unspecified)	0.5	1	-13	-1.9	10	15	-11	15	5.7	-1%
COC(=O)c1c(-c2ccc(SC)cc2)sc2ccc(OC)cc12	x	-6	x	u	-12	-5	0.1	x	1.2	x
COc1cc(/C=N\NC(=O)c2ccc(Cn3cc(Br)c([N+](=O)[O-])n3)o2)cc(OC)c1O	3.2	6	52	-0.6	x	x	x	3	x	23%
CCCn1c(C(C)Nc2nc(-c3ccc(C)cc3)cs2)nc2ccccc21 (stereo unspecified)	u	3	5	-0.8	-16*	-3.3*	5.2*	-31	0.8	x
COC(=O)c1cc(NC(=O)C23CCC(C)(C(=O)O2)C3(C)C)cc(C(=O)OC)c1 (stereo unspecified)	-0.6	-2	2	1.7	x	x	x	1	x	-1%
Cc1cccn2c(=O)c(C=O)c(N3CCN(c4ccccc4)CC3)nc12	-1.3	0	19	0.2	x	x	x	u	2.5	x
COCCCNC(=O)/C(C#N)=C/c1ccc(OCC(=O)O)c(OC)c1	6.3	-14	-11	2.0	x	x	x	-8	-1.2	4.1µM*
CN1CCN(c2ccc([N+](=O)[O-])cc2C(=O)N2CCOCC2)CC1	2.5	-8	11	0.5	x	x	x	1	x	-4%
Cc1noc(C(=O)NCc2ccccc2)c1Cl	2.3	-8	-16	0.9	13	17	-2.8	7	-42	-2%
O=C(O)CNC(=S)N(Cc1ccccc1F)C1CCCCC1	4.8	-2	-2	-0.4	-2	-10	-1.7	u	-2.5	7%
Cc1ccc(NC(=O)COC(=O)c2cc(-c3cccs3)nn2-c2ccccc2)cc1[N+](=O)[O-]	7.0	-2	1	0.4	x	x	x	1	x	-4%
CCC(C)(C(=O)NC1CCCCC1)N(C(=O)CC1NC(=O)NC1=O)c1c(C)n(C)n(-c2ccccc2)c1=O (stereo unspecified)	6.1	2	-5	0.0	3	-1	-0.5	-2	-0.6	7%
C#CCSc1nnc(-c2sc3ccccc3c2Cl)o1	x	6	-11	0.0	x	x	x	10	x	64%
NC(=O)CN1CCCN(S(=O)(=O)c2ccc(Br)cc2)CC1	-1.5	-5	-5	0.8	x	x	x	-6	x	-3%
O=C1c2cccc3c2[C@H](CCC3)CN1[C@@H]1CN2CCC1CC2	-0.1	-4	-3	-0.5	x	x	x	x	x	x
O=C(O)C1CCCN(S(=O)(=O)c2cccc3cccnc23)C1 (stereo unspecified)	-1.6	-8	0	0.2	2	4	-5.1	-3	-7.6	u
CCCNC(=O)c1cccc(Cn2nc(C)c(Br)c2C)c1	4.5	4	8	-0.8	x	x	x	-9	x	80%
CCN(/N=C/c1ccc(Cl)cc1)c1cc(=O)n(C)c(=O)[nH]1	3.6	2	10	-0.7	-3	-2	-3.7	35	-6.3	x
O=C(Cn1cccn1)c1ccccc1	2.4	1	3	0.2	10	4	0.3	-16	0.6	-2%

(list continues)
SMILES	RanGTP-Imp inh	Beta cell apopt	T cruzi repl	Bfl-1 A1 inh	Ecoli rRNA inh	Ecoli rRNA inh OD600	Ecoli rRNA inh RFP	Calb FLC	MLL AF4-AF9 inh	Vif TR-FRET
CCSc1nnc(NC(=O)c2cc(C)on2)s1	-2.0	0	x	0.8	x	x	x	43	x	u
O=C(CSc1ccc([N+](=O)[O-])cn1)Nc1cc(C(F)(F)F)ccc1N1CCOCC1	-0.9	-3	25	-0.7	-33	-41	-13	0	6.3	1%
Cn1cnc2c1c(=O)n(Cc1c(Cl)cccc1Cl)c(=O)n2C	1.3	x	-12	0.6	x	x	x	5	x	4%
CN(C)CCC(=O)c1ccc2c(c1)OCO2	-1.2	-22	4	0.3	x	x	x	-2	x	1%
COc1ccc(-c2[nH]ncc2/C=C(/C#N)C(=O)NC2CCCCCC2)cc1	1.4	1	-3	0.4	x	x	x	5	x	3%
CC(=O)N=Cc1c(C)c(C#N)c(=O)n(C)c1O	1.3	-5	-10	-0.2	24	15	9.4	7	0.3	7%
O=C(CN1CCN(Cc2ccccc2F)C1=O)NCCN1CCOCC1	2.4	x	-9	1.3	3	11	2.4	4	-6.0	0%
Cc1ccc(NC(=O)CSc2nnc(-c3ccco3)c(-c3ccco3)n2)cc1	-1.4	-6	19	-1.1	x	x	x	0	x	u

In the list so far, 2 contain a CF3 group.
SMILES	RanGTP-Imp inh	Beta cell apopt	T cruzi repl	Bfl-1 A1 inh	Ecoli rRNA inh	Ecoli rRNA inh OD600	Ecoli rRNA inh RFP	Calb FLC	MLL AF4-AF9 inh	Vif TR-FRET
O=C(CCSc1nc(-c2ccco2)cc(C(F)(F)F)n1)NCc1ccccn1	0.6	-2	2	0.8	x	x	x	3	x	-1%
O=C(CSc1ccc([N+](=O)[O-])cn1)Nc1cc(C(F)(F)F)ccc1N1CCOCC1	-0.9	-3	25	-0.7	-33	-41	-13	0	6.3	1%

An excerpt (hit frequency here may not be typical).
